Screening results (PubChem)
USP2a block = USP2a (human) protease inhibition; 0.01% of 330,000 active; AID 463254; USP2 core, Ub-CHOP2 coupled fluorogenic reporter, 485/531; Potency, µM (series often up to 38.3 µM), inactives show top-dose activity change, negative = inhibition, most hits filed as inhibitors; O75604;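 note: plate controls were DMSO wells for no effect and full inhibition by NEM control for full effect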
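Deubiquitinase activity read as fluorescence (485/531 nm) after Ub-CHOP2 cleavage activates the enterokinase reporter on its substrate; USP2 core 10nM, Ub-CHOP2 and substrate 25nM each, 30min compound preincubation then 60min RT; data normalized to NEM, curves fitted.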
Menin-MLL TR inh = menin-MLL binding inhibition, Texas Red mutant peptide | 0.23% of 270,000 active | Menin + Texas Red MLL mutant peptide, fluorescence polarization | Potency, µM (series often up to 61.6 µM), without a hit: top-dose FP activity change, negative = inhibition, usual class: inhibitors; active = well fitted inhibition curve with a large enough effect in the polarisation, with a control signal flat, not every such curve was filed as active; inconclusive = small, poorly fitted or top-dose-only effect, or effect the other way, or a change in a side signal; inactive = no such curve, though single readings can be large or run the other way; the % refers to the polarisation; note: % of control where 0% means no effect; many of its hits are not listed in these tables
Target sequence (O00255 whole entry, looked up): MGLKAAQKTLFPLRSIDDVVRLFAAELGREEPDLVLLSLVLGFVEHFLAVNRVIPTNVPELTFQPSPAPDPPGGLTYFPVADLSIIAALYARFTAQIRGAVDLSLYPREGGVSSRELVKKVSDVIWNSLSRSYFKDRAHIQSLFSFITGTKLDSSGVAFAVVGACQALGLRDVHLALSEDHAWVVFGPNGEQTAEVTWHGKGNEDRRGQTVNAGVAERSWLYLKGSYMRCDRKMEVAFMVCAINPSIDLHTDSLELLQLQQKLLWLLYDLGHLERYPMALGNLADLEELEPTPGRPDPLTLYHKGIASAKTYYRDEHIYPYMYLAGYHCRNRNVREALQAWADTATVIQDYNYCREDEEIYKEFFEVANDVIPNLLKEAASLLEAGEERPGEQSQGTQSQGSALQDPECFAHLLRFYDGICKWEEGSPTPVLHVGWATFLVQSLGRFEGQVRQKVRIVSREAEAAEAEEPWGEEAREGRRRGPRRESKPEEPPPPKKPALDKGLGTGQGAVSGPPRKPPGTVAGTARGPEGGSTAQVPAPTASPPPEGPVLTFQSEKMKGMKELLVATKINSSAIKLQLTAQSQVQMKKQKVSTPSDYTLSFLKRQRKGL
BCR signal inh = blocks chronic active B-cell receptor signaling; ABC-DLBCL IkBa-CBG/CBR reporter, luminescence ratio, 4 h; Potency, µM (doses to about 46.1 µM), for the others: at the highest dose ratio change, negative = lower green/red ratio, hits mostly inhibitors; 0.05% of 340,000 active; AID 493014; active = well fitted inhibition curve with a large enough effect in the signal ratio, with a control signal flat, not every such curve was filed as active; inconclusive = small, poorly fitted or top-dose-only effect, or effect the other way, or a change in a side signal; the % refers to the signal ratio;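 note: plate controls were basal doxycycline-induced cells for no effect and cells given 10 µM MG132 for full effect; MG132 reads +100%, hits lower the ratio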
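Compounds up to 46 uM were incubated four hours with TMD8 cells whose green CBG68 luciferase is fused to IkappaBalpha; red CBR luminescence normalised the signal, and concentration-effect curves were fitted to fusion, red and ratio data.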
GALK inh = blocks human galactokinase activity; P51570; Purified GALK, Kinase-Glo residual ATP luminescence; Potency, µM (series often up to 57.5 µM), for inactives: at the top dose activity change, negative = inhibition, hits mostly inhibitors; 0.007% of 270,000 active; AID 1868; note: % is set by controls: 0 for no effect and ±100 for the full control effect
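ATP-depletion format; final 35 uM ATP, 100 uM D-galactose, 5 nM enzyme; pH 8.0 HEPES/Mg2+ buffer; 60 min RT; luminescence read 10 min after detection reagent.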
Mito fusion act = inhibitors of mitochondrial division or activators of mitochondrial fusion; 0.23% of 320,000 active; S. cerevisiae fusion-defective mutant growth rescue, CellTiterGlo 48 h; Potency, µM (series often up to 46.1 µM), inactives show at the top dose growth rescue (activation), actives largely listed as activators; AID 485298;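 note: % of control where 0% means no effect; nearly all actives have a fitted effect of over 45% in size; temperature-sensitive fusion mutants such as fzo1-1 at 37 °C on non-fermentable ethanol glycerol medium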
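S. cerevisiae fusion-defective temperature-sensitive mutants (e.g. fzo1-1, mgm1-5) grown 48 h at 37C in YPEG (ethanol/glycerol non-fermentable) medium with 23 nl compound per well; growth rescue read as CellTiterGlo luminescence.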
S-ASM inh = human S-ASM enzyme inhibition; placental ASM, HMU-PC fluorogenic substrate, 60 min; Potency, µM (series often up to 57.5 µM), for inactives: top-dose activity change, negative = inhibition, actives largely listed as inhibitors; P17405; 0.006% of 340,000 active
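Fluorogenic HMU-PC substrate (9 uM final) is turned over by placental ASM in 60 min at 37 C after a 10 min compound preincubation. Reaction ended by alkaline stop (pH 10), with fluorescence read at 386/447 nm.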
MBNL1 CUG block = inhibitors of human MBNL1 binding to CUG repeat RNA | Q9NR56 | TR-FRET MBNL1-His/biotin-(CUG)12 binding, 665/545 ratio | Potency, µM (highest dose often 57.5 µM), inactives show top-dose activity change, negative = inhibition, most hits filed as inhibitors | 0.036% of 280,000 active; active = well fitted inhibition curve with a large enough effect in the signal ratio, with a control signal flat, not every such curve was filed as active; inconclusive = small, poorly fitted or top-dose-only effect, or effect the other way, or a change in a side signal; inactive = no such curve, though single readings can be large or run the other way; the % refers to the signal ratio; note: % is set by controls: 0 for no effect and ±100 for the full control effect
Target sequence (Q9NR56 whole entry, looked up): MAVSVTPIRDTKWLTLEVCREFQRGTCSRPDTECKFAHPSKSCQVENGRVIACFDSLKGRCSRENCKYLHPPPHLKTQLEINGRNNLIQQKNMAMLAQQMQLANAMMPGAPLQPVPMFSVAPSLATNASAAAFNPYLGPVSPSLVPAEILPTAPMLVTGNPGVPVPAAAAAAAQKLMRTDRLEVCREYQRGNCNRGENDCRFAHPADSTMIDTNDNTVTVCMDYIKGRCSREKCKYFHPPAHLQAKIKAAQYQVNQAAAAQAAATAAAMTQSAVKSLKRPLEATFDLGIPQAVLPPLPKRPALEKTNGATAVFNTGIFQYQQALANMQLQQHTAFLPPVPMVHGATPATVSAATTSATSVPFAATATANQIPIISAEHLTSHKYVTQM
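MBNL1-His + Biotin-(CUG)12, cpd titration 92 nM–58 uM; Tb anti-His Ab 0.055 ng/ul, SA-XL665 5 nM (final); 60 min RT; ratiometric 665/545 nm, Ex 340 nm; normalized to buffer and full-complex controls.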
Eya2 inh = blocks the phosphatase activity of human Eya2; recombinant Eya2, OMFP fluorescence dephosphorylation (OMFP is methylfluorescein phosphate); Potency, µM (highest dose often 76.9 µM), inactives show at the highest dose activity, negative = inhibition, usual class: inhibitors; 0.006% of 330,000 active; note: % is set by controls: 0 for no effect and ±100 for the full control effect
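Eya2 (0.2 uM) preincubated 10 min at ambient with compound, then OMFP substrate added at 50 uM; 10 min reaction in 50 mM HEPES pH 7.5, 50 mM NaCl, 5 uM MgCl2, 0.05% BSA, 1 mM DTT. Fluorescence read at Ex 485/Em 525 nm.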
PKM2 act = increases activity of human pyruvate kinase M2. P14618. purified PKM2, Kinase-Glo ATP luminescence, activation; response scale: 0% is enzyme alone, no compound. Potency, µM (top dose mostly 57.5 µM), for the others: top-dose activation, actives largely listed as activators. 0.34% of 260,000 active; note: % is set by controls: 0 for no effect and ±100 for the full control effect; nearly all actives have a fitted effect of over 55% in size
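ATP formation by purified human PK-M2, quantified via coupled luciferase luminescence after 1 h at room temperature with 0.1 mM ADP and 0.5 mM PEP final.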
An asterisk follows results filed as active; ? = inconclusive; · = no result given; & = joins results of further samples; ! = a repeat was not active; [ ] = dose if it differs, or a comment. Unless noted, calls come from the whole dose curve; as a rule, active = well fitted curve in the direction sought with a large enough effect; inconclusive = small, poorly fitted or top-dose-only effect, or another doubt; inactive = no such curve, though single readings can be large; an effect the other way counts as inactive or inconclusive. Potency is the fitted concentration of half-maximal effect. Not all compounds are listed; the hit share may differ from the screen's.

Compound,GALK inh,S-ASM inh,Eya2 inh,Mito fusion act,MBNL1 CUG block,BCR signal inh,USP2a block,PKM2 act,Menin-MLL TR inh
CCC[C@@](C)(COC(N)=O)COC(=O)NC(C)C,·,·,·,·,·,·,·,·,2%[24.8 µM]
C=CCn1c(O)c(C(C)=O)c(=O)[nH]c1=O (tested in a mixture with another compound),0%,4%,1%,-5%,-3%,1%,4%,-1%,·
CN(C)[C@@H]1C(=O)C(C(N)=O)=C(O)[C@@]2(O)C(=O)C3=C(O)c4c(O)ccc(Cl)c4[C@@](C)(O)C3C[C@@H]12 (stereo partly specified),·,19%,1%,-6%,2%,5%,0%,-1%,10%
Cc1ccc(-c2cc(-c3ccccc3)cc(-c3ccccc3)[n+]2-c2ccccc2)cc1,·,-3%,-16%,1%,·,?,0%,·,·
CC(C)NC[C@H](O)COc1cccc2[nH]ccc12,-3%,-4%,4%&15%,-31%&9%,-5%,0%,1%,-4%,4%
CC12NC(Cc3ccccc31)c1ccccc12 (stereo unspecified),·,·,6%,-21%,·,·,·,·,10%
O=C(c1cccc([N+](=O)[O-])c1)C12CN3CN(CN(C3)C1)C2,0%,-4%,-1%,7%,?,-2%,1%,3%,10%
CC(N)[C@H](O)c1ccc(O)c(O)c1 (stereo partly specified),·,·,-2%,-12%,·,·,·,·,5%
CCCOC(=O)c1ccccc1C(=O)OCCC,·,-2%,13%,14%,·,3%,-1%,·,·
CC1CCC2[C@@H](C)C(=O)OC3O[C@]4(C)CCC1C32OO4 (stereo partly specified),·,1%,·,·,·,·,·,·,·
NC(N)=N/N=C/c1c(Cl)cccc1Cl,-2%&1%,1%&-6%,-2%&-1%&-3%,?,-12%&5%,?,6%&-5%,-14%&-1%,-2%&8%&-1%
CCN(CC)CCNc1ccc(CO)c2sc3ccccc3c(=O)c12,-3%,-13%,-4%,3%,?,?,-2%,0%,1%
CCN1C[C@@]2(COC)[C@H]3[C@@H](OC)[C@H]4C1[C@@]3([C@H](OC)C[C@@H]2O)[C@H]1C[C@@]2(O)[C@@H](OC(=O)c3ccccc3)[C@@H]1[C@@]4(OC(C)=O)[C@H](O)[C@@H]2OC,·,·,·,·,·,·,·,·,-3%[24.8 µM]
CCC1(c2ccc(N)cc2)CCC(=O)NC1=O (stereo unspecified),·,0%,-3%,12%,·,·,·,·,13%&-8%
CC[C@@H]1CN2CCc3cc(OC)c(OC)cc3[C@H]2C[C@@H]1C[C@H]1NCCc2cc(OC)c(OC)cc21,·,·,·,·,·,·,·,·,?
CN(C)C(=O)C(CCN1CCC(O)(c2ccc(Cl)cc2)CC1)(c1ccccc1)c1ccccc1,0%,-3%,0%&-2%,?,1%,?,-2%,-1%,?
Nc1ccc2c(c1)Cc1ccccc1-2,0%,-1%,-3%,9%,-10%,-11%,5%,2%,2%
C[C@]12N[C@H](Cc3ccccc31)c1ccccc12,·,2%&-4%,9%,?,·,·,·,·,-5%&1%
CC(=O)N1CCN(c2ccc(OC[C@H]3CO[C@](Cn4ccnc4)(c4ccc(Cl)cc4Cl)O3)cc2)CC1,-4%&0%,2%,2%&2%&-4%,0.41µM*!,1%&24%,1%&-10%,-1%&4%,0%&4%,?
O=S(=O)(c1ccc(Cl)cc1)N1CC1c1ccccc1 (stereo unspecified),1%,-2%,-8%,-3%,·,1%,5%,-2%,7%
CC(=O)[C@H]1CC[C@H]2[C@@H]3CCC4=CC(=O)CC[C@]4(C)[C@H]3CC[C@]12C,1%&0%,3%&0%,-8%&-9%&-14%&-3%,18µM*!,2%&-3%,?,2%&1%&1%,-2%&-1%,?
COc1ccc(C(=O)N2CCCC2=O)cc1,-1%,0%,-1%&1%,-4%&-4%,?,?,10%,-1%,-1%
Nc1c(Cl)cc([N+](=O)[O-])cc1Cl,·,-1%,18%,-1%,·,?,1%,·,·
C[C@]12CCC(=O)C(O)=C1CC[C@@H]1[C@@H]2CC[C@]2(C)C(=O)CC[C@@H]12,-1%,-1%,1%,0%,-8%,?,0%,-1%,-4%
CCOC(=O)c1cc(CC)sc1/N=C/C1C(=O)NC(=S)NC1=O,9%,0%,2%,-4%,1%,15%,-1%,6%,-2%
C[C@@]12CCC(=O)C[C@@H]1CC[C@@H]1[C@@H]2CC[C@]2(C)C(=O)CC[C@@H]12,·,·,·,·,·,·,·,·,-12%
CC(=O)CC(c1ccccc1)c1c(O)c2ccccc2oc1=O (stereo unspecified),·,7%&0%&4%,9%&1%&21%,4%&1%&-3%,1%&6%,?,2%&4%&-1%,-8%&4%,-2%&-3%&-1%
C[C@]12N[C@@H](Cc3ccccc31)c1ccccc12,·,·,·,·,·,·,·,·,-1%&1%&-13%&6%[24.8 µM]
C[N+](C)(C)CC(=O)O,·,0%,-4%&22%,-8%&0%,·,1%,0%,·,0%
O=c1[nH]c2ccccc2n1CCCN1CCC(n2c(=O)[nH]c3cc(Cl)ccc32)CC1,0%,-2%,-3%&-8%,-1%&-1%,-8%,?,-1%,-10%,?
CC(C)n1c(/C=C/[C@@H](O)C[C@@H](O)CC(=O)O)c(-c2ccc(F)cc2)c2ccccc21,·,3%,17%,-8%,21%,23%,1%,1%,11%
COc1ccc2c(c1O)-c1cccc3c1[C@@H](C2)N(C)CC3,·,31%[activator],0%,-16%,·,·,·,·,·
CC1=C2C3OC(=O)[C@H](C)[C@H]3CC[C@@]2(C)C=CC1=O (stereo partly specified),·,·,·,·,·,·,·,·,9%[24.8 µM]
[Cl][Pt+2][Cl].[NH-]C1CCCCC1[NH-] (stereo unspecified),·,-8%,9%,-8%,·,-3%,1%,·,·
COP(=S)(OC)SCn1nnc2ccccc2c1=O,·,1%,·,·,·,·,·,·,2%
C[C@]12CCC3C(CC[C@H]4C[C@@H](O)CC[C@]34C)[C@H]1C=CC2=O (stereo partly specified),·,0%,-9%,·,·,?,-4%,·,·
C[C@@H]1O[C@@H](O[C@H]2C[C@@H](O)[C@]3(CO)[C@@H]4C(CC[C@]3(O)C2)[C@@]2(O)CC[C@H](C3=CC(=O)OC3)[C@@]2(C)C[C@H]4O)[C@H](O)[C@H](O)[C@H]1O (stereo partly specified),·,·,·,·,·,·,·,·,12%
CCCSc1ccc2nc(NC(=O)OC)[nH]c2c1,·,4%,2%,2%,?,?,4%,-22%,?
CCOP(=S)(OCC)Oc1nc(Cl)c(Cl)cc1Cl,·,-1%,15%,11%,·,3%,-1%,·,-10%
CCc1ccc(-n2c(O)c(C(C)=O)c(=O)[nH]c2=O)cc1 (tested in a mixture with another compound),-3%,1%,6%,-4%,5%,2%,0%,-1%,·
C[C@@H]1O[C@@H](O[C@H]2C[C@@H](O)[C@@]3(CO)[C@H]4[C@H](O)C[C@]5(C)[C@@H](C6=CC(=O)OC6)CC[C@]5(O)[C@H]4CC[C@@]3(O)C2)[C@@H](O)[C@H](O)[C@H]1O,·,·,·,·,·,·,·,·,1%
CC1=CC(=Cc2sc3ccccc3[n+]2C)C=C(C)O1,-4%,?,-11%,0%,?,?,3%,0%,-23%
C=CCN1CC[C@]23c4c5ccc(O)c4O[C@@H]2C(=O)CC[C@]3(O)[C@H]1C5,·,·,·,·,·,·,·,·,1%&-10%[24.8 µM]
Clc1ccc(COC(Cn2ccnc2)c2ccc(Cl)cc2Cl)c(Cl)c1 (stereo unspecified),2%,?,-23%&-20%,3.5µM*,46%[activator],?,-4%&-6%,3%,?
CC12CCC(=O)C=C1CCC1C2CCC2(C)C(O)CCC12 (stereo unspecified),3%,-4%,9%,13%,1%,?,-1%,-1%,1%
CCN1C[C@]2(OC(=O)c3ccccc3NC(C)=O)CCC(OC)C34C5C[C@H]6C(OC)[C@]5(O)[C@](O)(C[C@@H]6OC)C(C[C@@H]32)[C@H]14 (stereo partly specified),-3%,15%,7%,-15%,-4%,6%,1%,·,-17%
CC(C)(C)c1ccccc1O,·,-2%,14%,-2%,·,-2%,0%,·,·
OCCN1CCN(CCCN2c3ccccc3Sc3ccc(C(F)(F)F)cc32)CC1,-2%,-1%,-8%&-2%,?,3%,?,-19%,2%,?
C[C@](O)(CS(=O)(=O)c1ccc(F)cc1)C(=O)Nc1ccc(C#N)c(C(F)(F)F)c1,·,·,·,·,·,·,·,·,17%
CC(C)[N+]1(C)[C@@H]2CC[C@H]1CC(OC(=O)C(CO)c1ccccc1)C2 (stereo partly specified),2%,-3%&0%&1%,0%&-12%&-7%,-3%&-5%&-1%,-9%,-3%&3%&8%,2%&0%&-1%,-1%,-2%

Structural class: the entries above with a nitro group on carbon (2)
Compound,GALK inh,S-ASM inh,Eya2 inh,Mito fusion act,MBNL1 CUG block,BCR signal inh,USP2a block,PKM2 act,Menin-MLL TR inh
O=C(c1cccc([N+](=O)[O-])c1)C12CN3CN(CN(C3)C1)C2,0%,-4%,-1%,7%,?,-2%,1%,3%,10%
Nc1c(Cl)cc([N+](=O)[O-])cc1Cl,·,-1%,18%,-1%,·,?,1%,·,·
